Lassa entry inh: Lassa virus entry inhibition; Potency, µM (titrated, usually from 37.9 µM), for the others: at the highest dose activity change, negative = inhibition, usual class: inhibitors; Lassa virus pseudotype entry inhibition, cell reporter; control for the full effect not named in the record; hit rate 1.2% among 300,000; active means well fitted inhibition curve with a large enough effect; inconclusive means small, poorly fitted or top-dose-only effect, or effect the other way; inactive means flat fitted curve, though single readings scatter; tested in HEK293 cells; further: on the % scale 0 is the no-effect control and ±100 the full control effect; nearly all actives have a fitted effect of over 50% in size; luciferase read-out
Marburg entry inh: blocks Marburg virus binding to or entry into cells. Marburg virus pseudotyped entry inhibition, cell reporter; control for the full effect not named in the record; about a third of the inactives were read at about 46 µM. hit rate 1.8% among 300,000. AID 540276. Potency, µM (titrated, usually from 37.8 µM), for inactives: at the highest dose activity change, negative = inhibition, usual class: inhibitors; active = well fitted inhibition curve with a large enough effect; inconclusive = small, poorly fitted or top-dose-only effect, or effect the other way; inactive = flat fitted curve, though single readings scatter; tested in HEK293 cells; about a fifth of its hits are not listed in these tables; further: on the % scale 0 is the no-effect control and ±100 the full control effect; luciferase read-out
Cruzain Triton: inhibitors of Trypanosoma cruzi cruzain with detergent. hit rate 0.43% among 200,000. AID 1478. purified cruzain, Z-FR-AMC fluorescence, 0.01% Triton. Potency, µM, for inactives: max response, negative = inhibition, actives largely listed as inhibitors;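 further: plate controls were neutral wells for no effect and buffer without enzyme for full effect; nearly all actives have a fitted effect of over 40% in size; top concentration of the series not given in the record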
Target sequence (P25779 123-467 limits assumed): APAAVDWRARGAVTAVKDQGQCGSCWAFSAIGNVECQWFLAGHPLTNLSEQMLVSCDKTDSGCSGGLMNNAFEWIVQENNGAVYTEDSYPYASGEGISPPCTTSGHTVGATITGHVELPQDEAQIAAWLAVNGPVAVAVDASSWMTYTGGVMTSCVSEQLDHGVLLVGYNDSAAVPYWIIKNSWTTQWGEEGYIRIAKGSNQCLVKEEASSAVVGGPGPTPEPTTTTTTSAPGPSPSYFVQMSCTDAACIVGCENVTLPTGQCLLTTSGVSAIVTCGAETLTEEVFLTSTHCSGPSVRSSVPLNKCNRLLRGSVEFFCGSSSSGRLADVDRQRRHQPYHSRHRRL
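Read-out: AMC fluorescence (360 nm excitation, 450 nm emission), four reads over 2 min, first-to-third difference used. Conditions: cruzain 1.5 nM, Z-FR-AMC 2 uM, pH 5.5 acetate, 5 mM DTT, 0.01% Triton X-100.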
SARS PLP yeast: SARS-CoV PLP inhibition in yeast; S. cerevisiae expressing SARS-CoV PLpro, growth rescue; control for the full effect not named in the record; hit rate 0.19% among 330,000; Potency, µM (highest dose often 32.9 µM), for inactives: at the highest dose activity, positive = growth rescue; AID 485353; active means well fitted rising curve with a large enough effect; inconclusive means small, poorly fitted or top-dose-only effect; inactive means no such curve, though single readings can be large or run the other way; further: 0% is about no effect; nearly all actives have a fitted effect of over 55% in size; growth read by luminescence after 48 h
Cruzain inh noDet: blocks cruzain activity in detergent-free assay | hit rate 2.3% among 200,000 | P25779 | purified cruzain, Z-FR-AMC fluorescence, no detergent | AID 1476 | Potency, µM, without a hit: max response, negative = inhibition, most hits filed as inhibitors;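 further: plate controls were enzyme without inhibitor for no effect and buffer without enzyme for full effect; nearly all actives have a fitted effect of over 40% in size; top concentration of the series not given in the record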
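Purified cruzain at 1.5 nM, pre-incubated 15 min with compound at room temperature in 100 mM sodium acetate pH 5.5, 5 mM DTT, 0.00005% Triton X-100. Reaction started with 2 uM Z-FR-AMC; AMC fluorescence increase over 60 s gives rate.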
NS1 inh: inhibitors of influenza NS1 protein function | S. cerevisiae slowed by influenza A NS1, growth recovery by OD600 | Potency, µM (top dose mostly 46.1 µM), inactives show at the highest dose activity, positive = more growth | hit rate 0.4% among 270,000; active means well fitted rising curve with a large enough effect; inconclusive means small, poorly fitted or top-dose-only effect; inactive means no such curve, though single readings can be large or run the other way; further: nearly all actives have a fitted effect of over 50% in size
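OD600 was taken as the measure of yeast growth restored by compound in an NS1-expressing S. cerevisiae strain. Cells had been washed out of glucose medium and diluted 1:100 into galactose -URA medium, pH 6.0.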
StopGo reporter: FMDV 2A StopGo reporter, luciferase signal | human cells with a luciferase reporter of 2A StopGo recoding; control for the full effect not named in the record | Potency, µM (highest dose often 57.9 µM), for inactives: at the highest dose signal change, negative = less light | hit rate 1.2% among 410,000; active = well fitted falling curve with a large enough effect; inconclusive = small, poorly fitted or top-dose-only effect; inactive = no such curve, though single readings can be large or run the other way; tested in HEK293T cells; further: on the % scale 0 is the no-effect control and ±100 the full control effect; nearly all actives have a fitted effect of over 45% in size; luciferase light after 4 h
RE007 growth inh: less growth of the S. pombe RE007 Vpr strain; S. pombe RE007 Vpr strain, BacTiter-Glo ATP luminescence, 24 h; control for the full effect not named in the record; Potency, µM (titrated, usually from 92.2 µM), for inactives: at the highest dose activity change, negative = less growth; hit rate 0.21% among 360,000; active = well fitted falling curve with a large enough effect; inconclusive = small, poorly fitted or top-dose-only effect; inactive = no such curve, though single readings can be large or run the other way;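 further: on the % scale 0 is the no-effect control and ±100 the full control effect; nearly all actives have a fitted effect of over 50% in size; the assay follows cell death caused by Vpr and the record does not say whether a fall means rescue or toxicity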
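Fission yeast strain RE007, carrying one chromosomally integrated HIV-1 vpr copy, was seeded at OD 0.01 in PMG+AL medium with 23 nL pinned compound. After 24 h at 30 °C and 99% humidity, viability was read by BacTiter-Glo luminescence.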
Starred values were filed as active, the others as inactive; ? = inconclusive; . = not tested or not shown; & = joins results of further samples; [ ] = dose if it differs, or a comment. Unless noted, the call rests on the fitted dose curve; in most records, active means well fitted curve in the direction sought with a large enough effect; inconclusive means small, poorly fitted or top-dose-only effect, or another doubt; inactive means no such curve, though single readings can be large; an effect the other way counts as inactive or inconclusive. Potency means the concentration at half of the fitted maximal effect.

SMILES	Lassa entry inh	Marburg entry inh	Cruzain Triton	SARS PLP yeast	Cruzain inh noDet	NS1 inh	StopGo reporter	RE007 growth inh
Cc1noc(COc2ccccc2OCC(N)=O)c1Cl	-4%	-5%	0.8%	10%	3%	14%	-13%	2%
O=[N+]([O-])c1ccc(OP(=O)(O)Oc2ccc([N+](=O)[O-])cc2)cc1	-9%[46.1 µM]	16%[46.1 µM]	.	.	.	.	1%	8%
COc1cc(NC(=O)C2CC3CCC2C3)c(OC)cc1Cl (stereo not given)	7%	?	.	.	.	.	-5%	12%
O=C(COc1cccc2c1CCNC2=O)Nc1cccc(F)c1	-3%	-1%[46.1 µM]	.	-2%	.	.	-4%	7%
CCOC(=O)C1CCCN(C(=O)c2ccc3c(c2)N(Cc2ccc(Cl)cc2)C(=O)c2ccccc2S3=O)C1 (stereo not given)	-2%[46.1 µM]	5%[46.1 µM]	-0.6%	.	?	.	-13%	.
CCCCNCc1cc(OCC)c(OCC)cc1Br	-30%	?	.	-1%	.	0%	32%[activator]	1%
COCCNC(=O)C1CC(=O)N(c2ccc(OC)cc2)C1c1ccc(OC)cc1 (stereo not given)	-5%[46.1 µM]	5%[46.1 µM]	.	4%	.	.	-24%	5%
Cc1ccc(NC(=O)Nc2nnc(SCC(=O)Nc3ccc(F)cc3F)s2)cc1	23%[46.1 µM]	.	-0.9%	.	1%	.	-7%	.
COC(=O)c1cn(C)c2ccc(S(=O)(=O)N3CC(C)CC(C)C3)cc2c1=O (stereo not given)	40%[14.3 µM]	-3%	-10%	2%	?	-6%	0%	-6%
CN1/C(=C\C(=S)Nc2ccccc2)C(C)(C)c2ccccc21	-16%[46.1 µM]	?	.	-17%	.	.	-21%	-9%
CC(O)CSc1nc2c(c(=O)[nH]c(=O)n2C)n1Cc1ccccc1Cl (stereo not given)	19%[46.1 µM]	1%[46.1 µM]	.	13%	.	21%	-8%	-8%
Cc1ccccc1-n1c(=O)cc(N2CCCCCC2)[nH]c1=O	.	.	3.8%	-12%	-2%	6%	-16%	2%
CCOc1ccc(N2CC(C(=O)N3CC(C)OC(C)C3)CC2=O)cc1 (stereo not given)	13%	0%[46.1 µM]	.	0%	.	16%	-8%	0%
O=c1c2c(-c3cccs3)csc2ncn1-c1ccccc1	15%	-26%	-5.8%	8%	-3%	6%[9.22 µM]	-20%	-2%
Cc1ccn(-c2ccc([N+](=O)[O-])cc2)n1	-11%	15%	0.0%	-6%	-17%	1%	4%	-11%
CSc1sc(C(=O)NC(=O)NCc2ccncc2)c(C)c1-c1ccon1	-2%	?	.	1%	.	2%	-19%	5%
COc1cc(OC)c(S(=O)(=O)NCc2cccnc2)cc1NC(C)=O	.	.	.	1%	.	?	25%	16%
CCOC(=O)c1cc2c(ccn2C)n1CC(=O)Nc1ccc(F)cc1	.	.	.	0%	.	11%	-5%	7%
CCNC(=S)NNC(=O)c1cc(-c2ccc(OC)cc2)nc2ccccc12	3.3µM*	0.65µM*	-1.1%	-59%	23%	8%	11µM*	18µM*
CCCCCc1nc(-c2nonc2N)no1	-12%	2%	-4.1%	-30%	-12%	-11%	14%	8%
CC(C)CN(C(=O)c1cccc(S(=O)(=O)N2CCN(c3ccc(F)cc3)CC2)c1)C1CCS(=O)(=O)C1 (stereo not given)	-12%	-4%	.	-1%	.	.	-18%	-11%
CNC(=O)COC(=O)c1cc(-c2ccc(OC)cc2)nc2ccccc12	-37%[46.1 µM]	?	.	-8%	.	.	5%	-26%
Cn1c(Cl)cnc1C(O)c1ccccc1 (stereo not given)	-9%	13%	5.0%	-1%	6%	-3%	.	1%
Clc1ccc2nc(-c3ccc(Br)s3)cn2c1	8.2µM*	?	-2.4%	-17%	?	-23%	-18%	-16%
COc1cc(C#N)c(N=C(SCC#N)N2CCOCC2)cc1OC	?	-7%[46.1 µM]	.	0%	.	14%	-4%	4%
Cc1ccc(C2C(=O)N(C3CCCCCC3)CC(=O)N2CCC2=CCCCC2)cc1 (stereo not given)	?	.	1.0%	.	-6%	.	-15%	.
Cc1ccc2nc(C(Cl)(Cl)Cl)nc(N/N=C/c3ccc([N+](=O)[O-])cc3)c2c1	25%	10%[46.1 µM]	.	.	.	.	22µM*	-8%
CC1Cc2ccccc2N1C(=O)CN1C(=O)CN(C)C(=O)c2ccccc21 (stereo not given)	?	10%	3.3%	-4%	3%	-6%	-1%	17%
Cc1nonc1CC(=O)NC1CC(C)(C)Cc2c1cnn2-c1ccc(F)cc1 (stereo not given)	-8%	-27%	.	1%	.	7%	0%	2%
COc1ccc(-c2ccc(C#N)c(OC)n2)cc1	-17%	-28%[46.1 µM]	.	-5%	.	.	22%	3%
CC(C)Oc1ccc(C(=O)NCC(=O)OCC(=O)N(C)Cc2cccs2)cc1	-14%	11%[46.1 µM]	.	-3%	.	.	9%	-25%
O=C(c1ccc(C(=O)N2CCOCC2)nc1)N1CCOCC1	4%	-4%	2.9%	4%	-15%	5%	12%	17%
CCOC(=O)N1CCN(S(=O)(=O)c2ccc(C(=O)Nc3ccc(F)cc3F)cc2)CC1	?	?	5.4%	2%	9%	-9%	.	0%
COCCn1c(C)cc(C(=O)COC(=O)c2ccc3ncsc3c2)c1C	6%	?	-6.4%	1%	-2%	-18%	-11%	-20%
CN(Cc1cnn(C)c1)C(=O)c1cc(COc2c(F)cccc2F)on1	-14%	-20%[46.1 µM]	.	-1%	.	-6%	32%[activator]	18%
O=C(Nc1ccc(F)c(F)c1)C1CCCN(S(=O)(=O)c2cccc3nonc23)C1 (stereo not given)	-16%&17%[46.1 µM]	-1%&9%[46.1 µM]	1.9%	-1%	1%	-3%	3%&-15%	-1%
CCOC(=O)c1c(C)nc(C)c2c(=O)oc3ccccc3c12	4%[46.1 µM]	1%[46.1 µM]	.	0%	.	.	-1%	-11%
CCOc1ccc(NC(=O)Cn2c(C)ccc(C#N)c2=O)cc1	21%[46.1 µM]	-5%[46.1 µM]	-6.0%	.	-12%	.	-10%	.
CCOC(=O)c1cc2occc2n1CCCN1C(=O)c2ccccc2C1=O	-29%	2%	-6.5%	0%	-3%	-13%	.	6%
CCn1c(CCNC(=O)c2cccs2)nnc1SCC(=O)Nc1nc(-c2ccccc2)cs1	-11%	?	-5.5%	8%	?	0%	20µM*	17%
COc1ccc(OC)c(C(=O)COC(=O)CN2C(=O)NC3(CCCCC3C)C2=O)c1 (stereo not given)	5%	2%	.	-5%	.	.	0%	7%
COc1ccccc1-n1c(/C=C/c2ccc(O)cc2)nc2ccccc2c1=O	?	?	.	-3%	.	-2%	?	6%
COC(=O)C1=C(C)N(Cc2ccccc2)C(=NCc2cccc(Cl)c2)N[C@H]1c1cccc(F)c1	.	.	.	1%&14%	.	-52%	?	2%
CNC(=O)CSc1nc2cc(S(=O)(=O)Nc3ccccc3OC)ccc2o1	7%[46.1 µM]	13%[46.1 µM]	.	-3%	.	-8%	4%	38%
CC1C/C(=C\c2ccccc2[N+](=O)[O-])c2nc3ccccc3c(C(=O)O)c2C1 (stereo not given)	-11%	-13%	.	-2%	.	3%	-22%	-4%
NC(=O)C1CCN(C(=S)NC2CC3C=CC2C3)CC1 (stereo not given)	1%[46.1 µM]	2%[46.1 µM]	.	-2%	.	-1%	-6%	9%
Nc1ccccc1SCC(=O)Nc1nc(-c2ccccc2)cs1	?	?	.	-2%	.	-6%	-13%	-5%
COc1ccc(-n2c(C)cc(/C=C(\C#N)C(=O)NCc3ccco3)c2C)cc1	-1%	14%	-11%	-2%	-10%	6%	-18%	-7%
COc1cccc(NC(=S)N2CCCN(Cc3ccc(F)cc3)C2)c1	?	?	.	1%	.	.	12%	9%
COc1ccc(N2CCN(C(=O)c3ccc4ccccc4n3)CC2)cc1	-18%	-7%[46.1 µM]	.	0%	.	7%	11%	-9%
More structures.
SMILES	Lassa entry inh	Marburg entry inh	Cruzain Triton	SARS PLP yeast	Cruzain inh noDet	NS1 inh	StopGo reporter	RE007 growth inh
CC(=O)Oc1ccc2oc(-c3ccccc3)c(C(N)=O)c2c1	.	.	.	0%	.	-77%	3%	5%
O=C(CCN1C(=O)c2ccccc2C1=O)N1CCN(c2ccccn2)CC1	1%	0%	0.4%	10%	-3%	1%	27%	-10%
Cc1nc(SCC(=O)N(CC(C)C)C2CCS(=O)(=O)C2)c2ccccc2n1 (stereo not given)	4%	?	.	-1%	.	.	?	-15%
CCN(C(=O)CSc1nc2cc(S(=O)(=O)N(CC)CC)ccc2n1CC)C1CCS(=O)(=O)C1 (stereo not given)	-1%	6%[46.1 µM]	.	1%	.	.	-20%	2%
COCc1ccc(C(=O)N2CCCC(C(=O)c3ccc(SC)cc3)C2)s1 (stereo not given)	-31%	-12%	.	-3%	.	-31%	?	2%
CC(Oc1ccc(C(=O)c2ccccc2)cc1)C(=O)Nc1ccc(S(N)(=O)=O)cc1 (stereo not given)	-5%	?	-5.1%	-11%	-1%	-18%	0%	2%
OC(CSc1ccccc1Cl)CN1CCN(c2ccc(F)cc2)CC1 (stereo not given)	3%	?	0.1%	-5%	3%	-12%	-20%	-25%
O=C(OCCN(C1=NS(=O)(=O)c2ccccc21)c1ccc(Cl)cc1)c1ccco1	6%	-6%	-1.1%	-5%	0%	4%	0%	-4%
CCc1ccc(NC(=O)CS(=O)CC(=O)Nc2ccc(-n3cnnn3)c(C)c2)cc1 (stereo not given)	0%[46.1 µM]	11%[46.1 µM]	.	7%	.	11%	-12%	23%
Cc1ccc(-c2nnc(SCC(=O)N/N=C/c3ccc(C)s3)n2-c2ccccc2)cc1	16µM*	?	-5.9%	?	4%	14%	0%	1%
O=S(=O)(NCc1ccco1)c1ccc(S(=O)(=O)N2CCCCC2)cc1	-12%	?	0.2%	7%	8%	4%	45%[activator]	16%
O=C(O)c1cccc(Nc2ncnc3scc(-c4ccccc4)c23)c1	-13%[46.1 µM]	3%[46.1 µM]	-4.2%	.	-16%	.	-13%	.
COCCCn1c(-c2ccccc2Cl)n[nH]c1=S	8%	27%	4.6%	1%	-5%	14%	0%	-1%

Bioassay records: PubChem BioAssay, National Center for Advancing Translational Sciences (NCATS)
